Assay outcomes as filed in PubChem.
Beta apoptosis – beta cell apoptosis inhibition; INS-1E cytokine-induced death, ATP luminescence, 48 h; percent of positive-control rescue, neutral wells zero; protection from apoptosis, % (test concentration not listed); hit rate 0.8% among 300,000;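 active = all replicates at 75% or more, or half of them and the mean; inconclusive = half reach 75% but not the mean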;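 also: 0% = cytokine-treated negative control wells and 100% = positive control rescue; higher means more ATP so stronger rescue from cytokine killing; wells of about 40 µL received 100 nL stock; the first replicate is given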
LANA-H2A inh – blocks KSHV LANA binding to histone H2A/H2B | cell-free LANA-H2A/H2B peptide, fluorescence polarization | inhibition, % (concentration not given with the values) | AID 2629 | hit rate 0.6% among 320,000 | Q9QR71; in the data active = inhibition mostly above about 10%, no sharp cut-off; inactive = mostly below about 6.7%;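 also: stock transfer was 7.5 nL into about 10 µL; 0% = median of vehicle wells and 100% = median of positive control wells; one replicate is shown; the record names a cut of 25% in any replicate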
B2AR ag – activates human beta-2 adrenergic receptor causing internalization; response, % (test concentration not listed); AID 504454; Am2.2-beta2AR cells, FAP receptor internalization, flow cytometry; reference of the scale not given here; hit rate 0.43% among 340,000; P07550;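 active = response above a set limit, near 3 SD of response in nonfluorescent compounds, cut at about 42% in these data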;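 also: stock transfer was 100 nL into about 11 µL; a reference agonist was the positive control; negative values mostly stem from fluorescent compounds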
Target sequence (P07550 whole entry, looked up): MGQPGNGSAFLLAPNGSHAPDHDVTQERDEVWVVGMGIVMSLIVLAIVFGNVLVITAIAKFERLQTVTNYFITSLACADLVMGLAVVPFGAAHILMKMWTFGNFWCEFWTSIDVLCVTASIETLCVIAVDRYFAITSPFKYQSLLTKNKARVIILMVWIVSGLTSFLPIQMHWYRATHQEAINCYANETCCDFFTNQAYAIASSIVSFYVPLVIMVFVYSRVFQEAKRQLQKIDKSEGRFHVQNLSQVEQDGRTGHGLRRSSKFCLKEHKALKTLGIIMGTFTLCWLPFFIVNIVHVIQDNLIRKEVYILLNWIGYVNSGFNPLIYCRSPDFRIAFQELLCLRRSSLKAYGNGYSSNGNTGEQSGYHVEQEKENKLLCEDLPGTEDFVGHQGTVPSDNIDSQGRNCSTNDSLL
A1 inh – inhibitors of the anti-apoptotic protein A1, read as caspase activation; caspase activation, % (concentration not given with the values); hit rate 0.066% among 330,000; MEF A1-2A-BIM cells, Caspase-Glo 3/7 luminescence, 3 h; percent of clofoctol response, vehicle zero;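 active = over half of replicate activation scores above 10%, or exactly half above 10 with the replicate mean above 10; inconclusive = replicate mean below 10 yet half the replicates above 10; inactive = over half of replicates below 10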;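 also: wells of about 30 µL received 50 nL stock; many hits fall short of the cut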
T cruzi repl – blocks replication of Trypanosoma cruzi. hit rate 1.4% among 300,000. inhibition, % (test concentration not listed). T. cruzi beta-gal in NIH3T3, luminescence, 90 h;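 active = mean inhibition across valid replicates above about 55%, limit read from the data; inconclusive = mean below that limit but half or more replicates reach it; inactive = mean below it, under half of replicates reach it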;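 also: signal also drops with host cell toxicity which is not excluded here; 0% = plate median of DMSO wells and 100% = zero luminescence signal; higher percent means less beta-gal luminescence so fewer parasites; stock transfer was 50 nL into about 50 µL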
UCH37 DUB inh – inhibitors of human deubiquitinating enzyme UCH37. purified proteasome/UCH37, Ub-AMC cleavage fluorescence. inhibition, % (concentration not given with the values). hit rate 0.33% among 330,000. AID 588478;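 active = mean of two replicates above 20%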;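 also: 0% = compound-free wells with enzyme and 100% = wells lacking proteasome; stock transfer was 100 nL into about 20 µL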
Target sequence (Q9Y5K5 whole entry, looked up): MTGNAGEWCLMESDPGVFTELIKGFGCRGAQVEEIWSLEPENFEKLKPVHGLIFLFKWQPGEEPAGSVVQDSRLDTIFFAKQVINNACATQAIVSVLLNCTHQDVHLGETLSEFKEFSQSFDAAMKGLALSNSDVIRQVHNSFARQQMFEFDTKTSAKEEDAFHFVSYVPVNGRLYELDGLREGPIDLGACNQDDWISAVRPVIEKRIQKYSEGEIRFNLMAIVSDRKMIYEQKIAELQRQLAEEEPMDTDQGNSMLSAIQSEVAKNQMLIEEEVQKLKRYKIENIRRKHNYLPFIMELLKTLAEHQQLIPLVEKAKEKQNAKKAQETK
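Material: Human UCH37 enzyme supplied as purified proteasome complex | Schedule: 30 min preincubation with enzyme, 25 min cleavage at room temperature | Detection: AMC fluorescence 355/460 nm | Measure: % inhibition of Ub-AMC cleavage fluorescence | Controls: Wells without proteasome as full block, compound-free enzyme plus substrate as uninhibited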
RanGTP-Impb inh – inhibitors of RanGTP-importin-beta interaction, primary screen, biochemical, FRET, CFP-Ran, YFP-importin-beta, homogeneous; hit rate 1.1% among 300,000; cell-free CFP-Ran/YFP-importin-beta FRET ratio; AID 2216; inhibition, % (test concentration not listed);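 active = most replicates above 15%; inconclusive = exactly half above 15%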;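 also: 0% = DMSO wells and 100% = Ran loaded with GDP instead of GTP; wells of about 40 µL received 100 nL stock; the first replicate is given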
Calb FLC – affects C. albicans growth with fluconazole. C. albicans CaCi-2 (fluconazole-resistant clinical isolate) + fluconazole, Alamar Blue growth, 48 h. growth inhibition, % (no concentration beside the values). hit rate 0.57% among 300,000. AID 1979;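 active = most replicates above 75%; inconclusive = exactly half above 75%; inactive = most below 75%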;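 also: all wells also contain fluconazole at 8 µg/ml as a sub-toxic cotreatment; 0% = median of DMSO wells and 100% = median of geldanamycin control wells; wells of about 8 µL received 7.5 nL stock; the first replicate is given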
* marks the source's active call; other numbers are inactive results; i = inactive; ? = inconclusive; / = no result given. No enrichment for hits. Share with any hit: about 4.3%.

SMILES	Beta apoptosis	LANA-H2A inh	B2AR ag	A1 inh	T cruzi repl	UCH37 DUB inh	RanGTP-Impb inh	Calb FLC
COc1ccc(C(CC(=O)N2CCCCC2)C(C)C)cc1 (configuration not stated)	-4	-6.2	11	0.2	/	3.2	-3.5	-4
COc1ccc(NC(=O)N2CCC(n3nnc4cc(C)ccc43)CC2)cc1	5	-7.9	6	-0.3	-13	2.5	-1.0	-5
O=C(O)CC1(CC(=O)NCc2csc(-c3cccs3)n2)CCCCC1	-3	-8.2	2	-0.3	-16	-7.1	2.5	-1
CC(C)c1ccc(Nc2cnn(C34CC5CC(CC(CC(=O)O)(C5)C3)C4)c(=O)c2Cl)cc1	/	-2.5	7	-0.1	-11	9.5	-0.6	?
Cc1ccc(C(=O)Nc2cc(C)c(OCC(=O)N3CCOCC3)c(C)c2)cc1	3	0.3	3	-1.9	8	1.6	0.7	-4
CCc1cccc2c(C(=S)N3CCCC3)c[nH]c12	-8	-6.3	1	1.3	-2	4.6	?	-8
Cc1nnsc1S(=O)c1ccc(Cl)cc1 (configuration not stated)	/	1.0	5	-0.1	34	1.2	4.1	-4
CCCCc1ccc(NC(=O)CN2NS(=O)(=O)c3ccccc3C2=O)cc1	-7	-1.3	14	0.0	-1	3.8	3.7	16
COc1ccc(OC)c(Nc2ncnc3c2cnn3-c2cccc(C)c2)c1	0	-2.6	-6	0.2	-51	-22	-1.3	-7
CCCN(CC(=O)Nc1ccccc1C)C(=O)/C=C/c1ccc(S(=O)(=O)N2CCCCCC2)cc1	8	-1.5	10	0.8	42	-2.3	/	0
CC1=C(C(=O)OCCOc2ccccc2)C(c2coc3ccccc3c2=O)C2=C(CCCC2=O)N1 (configuration not stated)	7	-1.3	-10	1.2	6	-8.6	-0.7	-10
CN(c1ccccc1)S(=O)(=O)c1ccc(NC(=O)C2CCCCC2C(=O)O)cc1 (configuration not stated)	-4	2.6	3	-0.2	-5	0.6	-3.3	1
COc1ccc(-c2nc3c4ccccc4[nH]c(=O)n3n2)cc1	6	-3.4	-9	-0.4	-14	-5.0	-1.2	-23
COc1ccccc1N1CCN(C(=O)Cn2nc(C(F)(F)F)c3c2CCC3)CC1	-8	0.6	0	0.0	12	0.6	3.0	-3
CC(=O)N(Cc1cccs1)C1CCOC(C)(C)C1 (configuration not stated)	0	-1.3	2	-0.5	0	2.9	-4.1	-2
CN1C(=O)/C(=C/c2cccc([N+](=O)[O-])c2)C(=O)N1c1ccccc1	-5	-0.2	31	0.6	-5	1.5	-4.0	-14
COc1cccc(C(=O)/C=C/Nc2ccc(S(=O)(=O)Nc3cc(OC)nc(OC)n3)cc2)c1	3	-2.4	2	0.6	-8	-18	3.6	-32
COc1ccc(N2CCN(C(CNC(=O)C(=O)NC3CCCC3)c3ccco3)CC2)cc1 (configuration not stated)	-1	4.2	0	-0.3	0	1.8	?	-2
Cc1noc(C)c1COc1ccc(C(=O)N2CCCC(C(N)=O)C2)cc1 (configuration not stated)	-7	2.6	6	1.5	-5	2.6	-3.4	21
COc1ccc(-c2cc(C(=O)NCCCN3CCCC3=O)c3ccccc3n2)cc1OC	2	-27	2	0.7	/	3.9	/	/
CC(Nc1ccccc1)c1cccnc1 (configuration not stated)	-2	1.6	-5	1.2	27	-0.3	-1.8	-16
CCOc1ccc(S(=O)(=O)/N=C(/Nc2ccc(C(C)=O)cc2)c2ccccc2)cc1	5	6.1	-7	0.4	/	4.5	/	/
CCCCn1c(N)c(N(CC)C(=O)c2ccc(N3CCCC3=O)cc2)c(=O)[nH]c1=O	-1	/	-10	-1.2	4	4.5	?	7
O=C(Nc1ccc(Cl)cc1)Nc1ccccc1C(=O)O	4	-11	12	-6.7	-24	0.7	-0.7	8
Cn1c(NC(=O)c2ccc3c(c2)OCO3)cc(=O)n(C)c1=O	/	-1.3	6	0.8	-19	9.0	?	5
Cc1ccc2nc(Cl)c3cc(C(=O)NCCCN4CCCC4)sc3c2c1	-3	-5.1	3	-0.8	68*	1.7	-0.7	14
CC1C(=O)N2CCCc3cc(S(=O)(=O)NCc4ccccc4Cl)cc1c32 (configuration not stated)	-4	-5.8	-4	-0.5	24	1.5	0.3	-21
COc1ccc(N(C(=O)C(C)C)S(=O)(=O)c2ccc3c(c2)n(C)c(=O)n3C)cc1	0	2.5	-6	0.5	-8	-3.4	6.4	0
CC(Oc1ccccc1)C(=O)Nc1nc2c(s1)C(=O)CC(C)(C)C2 (configuration not stated)	-2	-2.7	-7	?	-2	1.1	1.5	-9
COc1ccc(-c2nn(C)c(=O)c3ccccc23)cc1CNC(=O)CN1CCOCC1	-1	3.8	/	0.0	17	-3.6	0.7	22
CCCCNS(=O)(=O)c1ccc2nc(SCC(=O)Nc3sccc3C#N)[nH]c2c1	13	-4.9	24	-0.5	11	-0.8	-2.4	4
O=C(CN(c1ccccc1F)S(=O)(=O)c1ccccc1)NC1CCCCCC1	1	3.7	53*	0.1	11	4.9	9.8	-9
O=C1c2ccccc2-c2cccc(C(=O)N3CCCCC3)c21	-11	-1.2	-6	0.6	-4	2.1	-2.6	-2
COc1cc(C2C(C(=O)c3ccco3)=C(O)C(=O)N2CC2CCCO2)ccc1O (configuration not stated)	21	2.7	3	-0.7	-9	5.7	0.6	-7
COc1cccc(NC(=O)CN(C)C(=O)C2CCN(C(=O)c3ccccc3C)CC2)c1	3	0.4	-6	1.1	-1	0.9	3.6	0
COc1ccccc1CNS(=O)(=O)c1c(C)[nH]c(C)c1C(=O)N1CCCCC1	/	-0.4	0	1.3	4	0.0	3.7	-10
CCCNC(=O)Nc1ccccc1SC	2	-7.7	-4	0.9	6	1.7	/	-11
COC(=O)c1ccc(NC(=O)CSc2n[nH]c(-c3ccncc3)n2)cc1	1	-4.4	11	-0.5	-28	2.5	0.9	2
CCOC(=O)Cn1nnnc1C(C(C)C)N(Cc1cccs1)Cc1cc2cc(C)ccc2[nH]c1=O (configuration not stated)	6	-7.4	20	-2.2	41	-6.2	-4.4	7
CCOC(=O)Nc1ccc2c(c1)N(C(=O)C(C)N1CCCC1)c1ccccc1CC2 (configuration not stated)	0	0.2	-9	-0.5	4	-1.9	-3.4	0

Reprinted from the part before: 2 entries, then new ones.
SMILES	Beta apoptosis	LANA-H2A inh	B2AR ag	A1 inh	T cruzi repl	UCH37 DUB inh	RanGTP-Impb inh	Calb FLC
CCOC(=O)Cn1nnnc1C(C(C)C)N(Cc1cccs1)Cc1cc2cc(C)ccc2[nH]c1=O (configuration not stated)	6	-7.4	20	-2.2	41	-6.2	-4.4	7
CCOC(=O)Nc1ccc2c(c1)N(C(=O)C(C)N1CCCC1)c1ccccc1CC2 (configuration not stated)	0	0.2	-9	-0.5	4	-1.9	-3.4	0
O=C(COc1ccc(Cl)cc1)NCCSc1ccccc1	-2	-4.1	2	-0.7	5	3.1	2.1	7
Cc1cc(/C=N/NC(N)=S)c(O)c(/C=N/NC(N)=S)c1	35	0.4	6	0.4	1	/	60*	1
COc1ccc(/C=C(\NC(=O)c2ccccc2)C(=O)NCC2CCCO2)cc1 (configuration not stated)	-8	-0.7	12	-0.1	1	1.0	1.2	-4
CCCn1c(-c2cccs2)nc2nc3ccccc3nc21	-2	-1.1	-23	-0.3	-1	i	5.1	50
COC1(OC)N=C(N)C2(C#N)C(c3cccc(Oc4ccccc4)c3)C12C#N (configuration not stated)	2	-6.6	0	-0.3	-8	6.2	1.9	-5
CCc1cccc(N(C(=O)c2csnn2)C(C(=O)NC(C)(C)CC)c2ccccn2)c1 (configuration not stated)	-5	-2.3	-1	0.1	-4	1.5	2.0	10
O=C(CN1CCCCCC1)Nc1ccccc1C(=O)Nc1ccccc1	9	5.8	3	0.0	16	3.2	2.1	-9
CCCCOC(=O)c1ccc(NC(=O)c2c(N)n(C)c(=O)[nH]c2=O)cc1	-1	2.9	/	0.6	-14	1.3	1.3	-4
COCCN1C(=O)C(=O)/C(=C(/O)c2ccc(S(=O)(=O)N3CCOCC3)cc2)C1c1cccc([N+](=O)[O-])c1 (configuration not stated)	0	-3.9	3	2.5	-19	14	1.3	-2
CCN(CC)C(=O)C(=O)N/N=C/c1ccc(C(=O)O)cc1	2	1.2	-3	0.9	-12	/	2.2	30
COc1ccc(NC(=O)c2ccc3[nH]c(C)c(C)c3c2)cc1	3	0.6	6	-1.3	-16	3.9	0.7	5
COc1ccc(C2c3[nH]c4ccccc4c3CCN2CCCn2cccn2)c(C)c1C (configuration not stated)	12	0.4	-9	1.1	48	-112	-19	-1
COCCn1c(SCc2ccccc2F)nc2ccccc2c1=O	-1	-2.2	8	0.7	38	-1.6	-1.7	-1
Cc1cccc(C(=O)OC2CCOC2=O)c1O (configuration not stated)	-2	2.7	-1	-1.0	-7	-1.0	0.2	-10
Cc1onc(-c2ccccc2)c1C(=O)Nc1ccc(S(=O)(=O)N2CCCCC2)cc1	/	/	1	/	-33	4.6	2.5	10
Cn1nnc(NC(=O)c2ccccc2)n1	-1	7.1	5	0.3	-2	6.2	-2.8	6
COc1ccccc1OCC(=O)Nc1cc2c(cc1C(=O)O)OCCCO2	-1	-2.0	19	-0.8	-9	0.7	-1.3	5
C=CC[n+]1ccc2ccccc2c1C	-6	-5.5	1	-0.7	0	-6.8	-4.1	-6
O=C(CCc1ccc(S(=O)(=O)NCc2ccccc2)cc1)N1CCN(Cc2ccc3c(c2)OCO3)CC1	/	/	1	/	59*	-0.1	-0.1	-25
CCN(CC)CCCNC(=O)c1cn(C)c2ccc(S(=O)(=O)N(C)C3CCCCC3)cc2c1=O	-8	5.8	10	-0.3	11	5.3	5.1	-2
CCOc1ccc(C(=O)NC2CCN(C(=O)NCc3ccccc3)CC2)cc1	2	2.4	-7	-0.1	6	2.1	-3.0	-11
CCCC1CCC(c2ccc(C(=O)NN)cc2)CC1 (configuration not stated)	?	1.1	12	1.2	-17	3.7	-3.0	2
CCC(=O)N[C@@H]1CC(C(C)(C)NC(=O)CC)CC=C1C (some centres not stated)	/	3.7	8	0.5	-5	1.3	1.5	11
COC(=O)CSc1nc(NC#N)nc(NC(C)(C)C)n1	-6	-1.4	-1	0.5	12	0.2	?	-8
Cc1cccc(NC(=O)C2CCN(S(=O)(=O)c3ccc(Cl)cc3)CC2)n1	-4	-2.6	15	0.1	12	5.1	-3.3	-6
Cc1ccc(S(=O)(=O)N2Cc3ccccc3CC2C(=O)NC(C)(C)C)cc1 (configuration not stated)	0	2.3	-2	0.4	0	0.9	-1.8	-5
COc1cc(OC)cc(C(=O)N2CCC(N3CCCCCC3)CC2)c1	-2	-6.5	14	0.9	1	3.1	-0.5	8
CC1(C)CC(O)(CCNCc2ccc3c(c2)OCO3)CCO1 (configuration not stated)	4	-1.7	-10	1.4	25	1.0	-1.0	-6
COCCCN(CC(=O)Nc1ccc(N2CCOCC2)cc1)S(=O)(=O)c1ccc(Cl)cc1	0	-2.2	-2	-0.2	-5	1.1	-3.0	15
NC(=O)c1c(NC(=O)CSc2nnc(-c3ccco3)n2N)sc2c1CCCC2	-11	-2.4	-14	-1.0	6	8.3	-0.6	24
